Screening results from PubChem BioAssay.
YjeE inh – displaces an ADP probe from E. coli YjeE (TsaE); purified YjeE, fluorescence polarisation of a bound ADP probe; Potency, µM; 71,000 tested, 0.05% active; active = well fitted falling curve; inconclusive = weaker or top-dose-only fall, or a rising curve; inactive = flat or poorly fitted curve;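 also: top concentration of the series not given in the record; excess ADP was the control for the full effect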
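Purified YjeE (10 uM) with BODIPY Texas Red-labeled ADP probe (2 uM); compounds pin-transferred, 15 min at room temperature. Binding inhibition read as decreased fluorescence polarization; ADP titration as control.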
Bst PK mod – pyruvate kinase (B. stearothermophilus) modulation; partly purified Bacillus stearothermophilus pyruvate kinase, luminescence ATP production; ribose 5-phosphate activator present at AC10; Potency, µM; 51,000 tested, 1.2% active; AID 361; in the data active means potency below about 11 µM; inconclusive means mostly about 12 µM to 25 µM; inactive means weaker than that;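 the screen sought inhibitors and activators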;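 also: potency is read from the fitted curve at half-maximal effect; scaled between full activation by ribose 5 phosphate and full inhibition by luteolin; about four in five hits inhibit and the cells do not say which; series up to 57 µM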
Starred values were filed as active, the others as inactive; i = inactive; ? = inconclusive; / = no result given. An excerpt; rates above refer to the full screens.

Start of the data: the first two entries, to show the layout:
item | SMILES | Bst PK mod | YjeE inh
1 | O=C(O)COC(=O)Cc1ccccc1Nc1c(Cl)cccc1Cl | / | i
2 | Cc1nnc(NS(=O)(=O)c2ccc(N)cc2)s1 | >26 | i

The list itself, from the first entry:
item | SMILES | Bst PK mod | YjeE inh
1 | O=C(O)COC(=O)Cc1ccccc1Nc1c(Cl)cccc1Cl | / | i
2 | Cc1nnc(NS(=O)(=O)c2ccc(N)cc2)s1 | >26 | i
3 | Nc1nccs1 | / | i
4 | COc1nc(C)nc(Cl)c1NC1=NCCN1 | / | i
5 | COc1cc2nc(N3CCN(C(=O)C4COc5ccccc5O4)CC3)nc(N)c2cc1OC (stereo not given) | >26 | /
6 | O=C1NCC2(CCN(CCc3ccccc3)CC2)O1 | / | i
7 | CCCOc1ccccc1-c1nc2n[nH]nc2c(=O)[nH]1 | / | i
8 | CCN(CC)C[C@@H]1CCCCN1CC(=O)N1c2ccccc2C(=O)Nc2cccnc21 | / | i
9 | NS(=O)(=O)c1cc2c(cc1C(F)(F)F)NC(Cc1ccccc1)NS2(=O)=O (stereo not given) | >26 | /
10 | CC(C)(C)NC[C@H](O)COc1cccc2c1C[C@@H](O)[C@@H](O)C2 | / | i
11 | Nc1cc(-c2ccncc2)c[nH]c1=O | / | i
12 | C[C@]12CC[C@H]3[C@@H](CCC4=CC(=O)CC[C@@]43C)[C@@H]1CC[C@@H]2C(=O)CO | >26 | /
13 | CC(C)Cc1ccc([C@H](C)C(=O)O)cc1 | / | i
14 | O=C(O)CN1C(=O)c2cccc3cccc(c23)C1=O | / | i
15 | c1ccc2c(CC3=NCCN3)cccc2c1 | >26 | i
16 | CCCCCCC/C=C\CCCCCCCCC(=O)O | / | i
17 | COc1ccc(CN(CCN(C)C)c2ccccn2)cc1 | >26 | i
18 | CC(=O)[C@@H]1CC[C@@H]2[C@@H]3C[C@H](C)C4=CC(=O)CC[C@@]4(C)[C@H]3[C@H](O)C[C@]21C | / | i
19 | O=C(Cn1ccnc1[N+](=O)[O-])NCCO | / | i
20 | CC1=NN(c2ccccc2)C(=O)C1 | >26 | i
21 | CC(C)Cc1ccc(C(C)C(=O)O)cc1 (stereo not given) | >11 | /
22 | NS(=O)(=O)c1cc2c(cc1C(F)(F)F)N[C@H](Cc1ccccc1)NS2(=O)=O | / | i
23 | CN1CCC(=C2c3ccccc3CCc3sccc32)CC1 | / | i
24 | Nc1c2c(nc3ccccc13)CCC[C@H]2O | / | i
25 | CN(C)CCCSc1ccccc1NC(=O)/C=C\c1ccccc1 | / | i
26 | CN(C)CCCN1c2ccccc2Sc2ccccc21 | >26 | i
27 | N=C(N=C(N)N)N1CCOCC1 | / | i
28 | CC(=O)O[C@]1(C(C)=O)CC[C@H]2[C@@H]3C=C(Cl)C4=CC(=O)[C@@H]5C[C@@H]5[C@]4(C)[C@H]3CC[C@@]21C | / | i
29 | C[C@]12CC3CC(N)(C1)C[C@@](C)(C3)C2 | / | i
30 | Cc1c(C(=O)O)c(O)cc2c1C(=O)c1c(O)c([C@H]3O[C@H](CO)[C@@H](O)[C@H](O)[C@H]3O)c(O)c(O)c1C2=O | / | ?
31 | CCC1C(=O)OCC1Cc1cncn1C (stereo not given) | / | i
32 | CCCCCCCCO | / | i
33 | COc1ccccc1OCC(O)COC(N)=O (stereo not given) | >11 | /
34 | O=C1N(c2ccccc2)c2ccccc2C1(Cc1ccncc1)Cc1ccncc1 | / | i

Grouped by structure, those above containing a CF3 group (two)
item | SMILES | Bst PK mod | YjeE inh
9 | NS(=O)(=O)c1cc2c(cc1C(F)(F)F)NC(Cc1ccccc1)NS2(=O)=O (stereo not given) | >26 | /
22 | NS(=O)(=O)c1cc2c(cc1C(F)(F)F)N[C@H](Cc1ccccc1)NS2(=O)=O | / | i

Sorted by length of the SMILES (rising): part of the list above
item | SMILES | Bst PK mod | YjeE inh
32 | CCCCCCCCO | / | i
27 | N=C(N=C(N)N)N1CCOCC1 | / | i
31 | CCC1C(=O)OCC1Cc1cncn1C (stereo not given) | / | i
26 | CN(C)CCCN1c2ccccc2Sc2ccccc21 | >26 | i
34 | O=C1N(c2ccccc2)c2ccccc2C1(Cc1ccncc1)Cc1ccncc1 | / | i
30 | Cc1c(C(=O)O)c(O)cc2c1C(=O)c1c(O)c([C@H]3O[C@H](CO)[C@@H](O)[C@H](O)[C@H]3O)c(O)c(O)c1C2=O | / | ?
28 | CC(=O)O[C@]1(C(C)=O)CC[C@H]2[C@@H]3C=C(Cl)C4=CC(=O)[C@@H]5C[C@@H]5[C@]4(C)[C@H]3CC[C@@]21C | / | i

Rewritten screen by screen: part of the list above
29) C[C@]12CC3CC(N)(C1)C[C@@](C)(C3)C2
34) O=C1N(c2ccccc2)c2ccccc2C1(Cc1ccncc1)Cc1ccncc1
entry no. | 29 | 34
Bst PK mod | / | /
YjeE inh | i | i
